# Screens deposited in PubChem BioAssay by PCMD.
# Biofilm kill mix = mixtures killing C. albicans biofilm. C. albicans biofilm persisters + clotrimazole, fluorescence viability; primary screen in compound mixtures of four per well. inhibition, % at 7.6 µM. 0.02% of 120,000 active;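 active = inhibition above 30.3% in the primary screen of four-compound pools, then above 30% when the compound was retested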;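 also: compounds exposed to preformed 24 h biofilms for 48 h; the number belongs to the whole pool; some results filed as inactive read as strong as hits; inactives centre near 12; 0% = biofilm with clotrimazole alone and 100% = kill control; retested singly at about 60 µM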
#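 System: C. albicans CAF4-2 wild-type biofilms; Medium: RPMI/MOPS medium, pH 7.0; Reagent: Clotrimazole, 50 µg/mL; Times: biofilm formation 24 h, compound exposure 48 h, 37 °C; Detection: 2-h Alamar Blue fluorescence, 535/590 nm excitation/emission; Evaluation: percent inhibition of biofilm viability.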
# An asterisk follows results filed as active. An excerpt. The share of hits here may be higher or lower than overall.
smiles | Biofilm kill mix
O=C(N/N=C/c1ccccn1)c1ccc2nc[nH]c2c1 | 13
CC(C)CCN1CCN(Cc2cnc(N3CCCC3)s2)CC1CCO (stereo not given) | 15
CCOC(=O)CNC(=O)CSc1nnc(NC(=O)c2ccc(C)cc2)s1 | 0
CCc1nnc(NC(=O)CSc2nc3cc(OC)ccc3cc2C)s1 | 3
O=C(c1ccc(COc2c(F)c(F)cc(F)c2F)o1)N1CCN(c2ccccc2)CC1 | 17
N=C(N)c1ccc(OCCCCCOc2ccc(C(=N)N)cc2)cc1 | 17
O=C(N/N=C/c1cccc(O)c1)c1cc(-c2ccc3c(c2)OCO3)n[nH]1 | 14
O=C(O)CCn1c(O)c(C=C2N=c3ccccc3=N2)sc1=S | 17
CCOC(=O)CNC(=S)SC | 7
Cn1cccc1CC(=O)NNC(=S)Nc1ccc(F)cc1 | 10
COc1ccc(C(=O)O/N=C(\C)c2nccs2)cc1 | 8
CCOC(=O)c1sc(=NC(=O)c2ccc(S(=O)(=O)N(C)c3ccccc3)cc2)n(C)c1C | 10
O=C(c1ccc(-n2cnnn2)cc1)N(C1CCCCC1)C1CCCCC1 | 7
Cc1c(S(=O)(=O)NCCc2ccccc2)c(=O)n(C)c(=O)n1C | 15
CC(C)(C)c1ccc(C(=O)N/C(=C\c2ccco2)C(=O)O)cc1 | 14
Cc1ccc(N2CCN(C(=O)NC3CCCCC3)CC2C)cc1 (stereo not given) | 30
Cc1cc(O)c(-c2cc(C(=O)NCCc3ccc(S(N)(=O)=O)cc3)[nH]n2)cc1C | 25
CC1CCc2c(nc3ncnn3c2NCCc2ccccc2F)C1 (stereo not given) | 16
O=C(C1CCCCC1)N1CCN(c2nc(-c3ccc(F)cc3)cs2)CC1 | 10
N#Cc1ccc(C23CC4(C2)[C@H](CN(Cc2cccnc2)[C@@H]4c2ccccc2)C3c2ccccc2)cc1 (stereo not given in full) | 9
CC(=O)OC(C(=O)N1CCN(c2ccc(F)cc2)CC1)c1ccccc1 (stereo not given) | 11
CSc1nnc(NC(=O)c2cc(=O)c3cc(C)cc(C)c3o2)s1 | 4
CCc1ccc(C(=O)NNc2ccc(Cl)cc2)cc1 | 10
NCCCC[C@@H]1NC(=O)c2cc([N+](=O)[O-])cc(I)c2SC[C@@H](C(=O)NCC(N)=O)NC(=O)CNC1=O | 17
COc1ccc2c(c1)CC(C)C/C2=N\NC(=O)c1ccco1 (stereo not given) | 4
COc1ccccc1C1C2=C(CC(C)(C)CC2=O)Nc2nnnn21 (stereo not given) | 8
CC1Cc2ccccc2N1C(=O)CSc1nnc2c(n1)[nH]c1ccc(F)cc12 (stereo not given) | 15
COc1ccc(OCc2nnc(SCC(=O)NNC(=O)c3ccc(C)cc3)n2C)cc1 | 15
CC(C)Oc1ccc(Cn2c(-c3ccco3)n[nH]c2=S)cc1 | 17
COc1ccc(OC)c(-c2csc(NC(=O)CSc3ccc(Br)cc3)n2)c1 | 14

# Pulled by structure from the list above:
smiles | Biofilm kill mix
Cc1c(S(=O)(=O)NCCc2ccccc2)c(=O)n(C)c(=O)n1C | 15
CCOC(=O)CNC(=O)CSc1nnc(NC(=O)c2ccc(C)cc2)s1 | 0

# (more compounds)
smiles | Biofilm kill mix
Cc1oc2cc([N+](=O)[O-])c(O)c([N+](=O)[O-])c2c1C(=O)c1ccc(Br)cc1 | 20
Cc1cc(NC(=O)c2ccc(COc3ccccc3Cl)o2)no1 | 10
COc1ccc(CNC(=O)C2CCCN(c3nccc(C)n3)C2)cc1 (stereo not given) | 8
NC1=NN=C(c2ccc3c(c2)OCCO3)CS1 | 12
CC1CC(C)(C)NC(=S)N1CC(=O)NCc1ccccc1Cl (stereo not given) | 11
CC(=O)Nc1ccc(S(=O)(=O)Nc2nc3ccccc3nc2Nc2cccc(S(N)(=O)=O)c2)cc1 | 22
O=C(CN1CCN(c2ccccc2)CC1)Nc1scc2c1c(=O)oc1ccccc12 | 19
Cc1cccc2cc3cccc(C)c3nc12 | 21
COc1ccc(CN2CCN(C(=O)c3ccc(-c4ccccc4)cc3)CC2)c(OC)c1OC | 14
NC(=O)[C@@H]1CC2(CC(c3cccc(NC(=O)CC(c4ccccc4)c4ccccc4)c3)=NO2)CN1C(=O)[C@@H]1CCC(=O)N1 (stereo not given in full) | 5

# 4 entries from above in a different format.
CC1CC(C)(C)NC(=S)N1CC(=O)NCc1ccccc1Cl (stereo not given)
  Biofilm kill mix: 11

CC(=O)Nc1ccc(S(=O)(=O)Nc2nc3ccccc3nc2Nc2cccc(S(N)(=O)=O)c2)cc1
  Biofilm kill mix: 22

O=C(CN1CCN(c2ccccc2)CC1)Nc1scc2c1c(=O)oc1ccccc12
  Biofilm kill mix: 19

Cc1cccc2cc3cccc(C)c3nc12
  Biofilm kill mix: 21

# Later entries.
smiles | Biofilm kill mix
CCN(CC)C(=S)Nc1ccc(OC(F)F)cc1 | 11
CCCN(Cc1cc2cc(C)ccc2[nH]c1=O)C(=O)c1ccccn1 | 24
CCN1C(=O)C(CC(=O)Nc2ccc(OC)cc2)N(CCCN2CCN(c3ccc(OC)cc3)CC2)C1=S (stereo not given) | 15
CCCn1c(NC(=S)Nc2ccccc2)nc2ccccc21 | 13
CCOC(=O)c1[nH]cnc1C(=O)Nc1ccccc1OC | 13
O=C(/C=C/c1ccncc1)c1cc(Cl)ccc1O | 19
CC(C)Cc1ccc(C(C)NC(=O)c2ccc(=O)[nH]c2)cc1 (stereo not given) | 10
CCCc1cc(C(=O)N2CCCC(C(=O)c3cccc4ccccc34)C2)n(C)n1 (stereo not given) | 18
COc1cccc(N2CCN(CC(=O)NC3=Nc4ccccc4N=C(C)C3c3ccccc3)CC2)c1 (stereo not given) | 23
O=C(O)CCCNc1c(C(=O)Nc2ccc(Cl)cc2)cc([N+](=O)[O-])cc1[N+](=O)[O-] | 8
Cc1nn(Cc2ccc(F)cc2)c(Cl)c1/C=N/NC(=O)c1ccccc1 | 14
COc1ccc(C(=O)c2cc([N+](=O)[O-])ccc2N2CCCC2)cc1 | 23
COc1ccc(/C=N/N=C2\SCC(=O)N2c2c(C)n(C)n(-c3ccccc3)c2=O)cc1OC | 5
Cc1cccc(NC(=O)CNC(=O)COc2ccc(-c3ccc(C#N)cc3)cc2)c1C | 5
COc1ccccc1CNC(=O)CN(c1cccc([N+](=O)[O-])c1)S(C)(=O)=O | 7
CC1=NN(C(=O)c2ccoc2C)C(O)(C(F)(F)F)C1 (stereo not given) | 15
Cc1ccc(S(=O)(=O)Nc2cc(-c3ccccc3)nn2C)cc1 | 14
C=CCOc1ccc(/C=C2\N=C(C)OC2=O)cc1OC | 22
CCOc1cc(/C=N/Nc2nc(=O)[nH]nc2C)ccc1O | 8
CS(=O)(=O)Oc1ccc(Br)cc1/C=C1/N=C(c2ccco2)OC1=O | 12
Cn1c(=O)c2c(nc(SCC(=O)NCc3ccc4c(c3)OCO4)n2Cc2ccc(F)cc2)n(C)c1=O | 7
O=C(COc1ccc(Br)cc1Cl)c1ccc[nH]1 | 16
O=C(Nc1cccnc1)c1cc(-c2ccccc2)on1 | 13
CSc1sc(C(=O)NNC(C)=O)c2c1C=CCC2 | 19
Cc1ccc2c(CC(=O)OC(C)C(=O)Nc3ncc(Cl)cc3Cl)coc2c1 (stereo not given) | 9
Cc1ccc(-c2nn(-c3ccccc3)cc2C(=O)N2CCN(c3ccccn3)CC2)cc1 | 19
O=C(O)c1ccc(-n2cccn2)nc1 | 17
COc1ccc(S(=O)(=O)c2c(C)c(NS(=O)(=O)c3ccccc3)cc(C)c2O)cc1 | 13
Cc1nn(C(C)C)c(C)c1CN1CCN(Cc2ccsc2)C(CCO)C1 (stereo not given) | 8
CC(C)NC(=O)c1cc2ccccc2o1 | 7
COc1ccc(Cl)cc1-c1nc(-c2ccc(NC(=O)c3cccs3)cc2)no1 | 10
CC(C)Oc1cccc(C(=O)C2CCCN(Cc3cccn3-c3cccnc3)C2)c1 (stereo not given) | 18
Cc1ccc(NC(=S)NNC(=S)NC2CCCCC2)cc1 | 22
Cc1occc1C(=O)NNC(=O)C1CCCCC1 | 12
COc1ccc(NC(=O)CNS(=O)(=O)c2ccc(Cl)cc2)cc1 | 20
Cc1ccc(-c2nnc(SCC(N)=O)n2C)cc1 | 13
COc1ccc(/C=N/NC(=O)c2ccc3nc[nH]c3c2)c(OC)c1OC | 9
O=C(N/N=C/c1ccc(OCc2ccccc2)cc1)c1ccncc1 | 5
CCOc1cc(/C=C2\NC(=O)NC2=O)cc([N+](=O)[O-])c1O | 15
Cc1nn(CCC(=O)NNC(=S)Nc2ccc(F)cc2)c(C)c1Br | 11
CCOC(=O)c1[nH]c2ccc(Br)cc2c1NC(=O)CCN1CCOCC1 | 21
CCN1/C(=C/C(C)=C/c2sc3ccccc3[n+]2CC)Sc2ccccc21 | 17
COC(=O)c1cc(Cl)c(NC(=O)/C=C/c2ccc(OC)cc2)cc1OC | 16
O=C(/C=C/c1ccc2c(c1)OCO2)Nc1c(C(=O)O)[nH]c2ccccc12 | 19
Cc1ccc(C(=O)N/C(=C/c2ccc(-c3cccc([N+](=O)[O-])c3)o2)C(=O)NC(C)(C)C)cc1 | 18
O=C(Nc1cccc(C(F)(F)F)c1)Oc1ccccc1N1CCOCC1 | 26
CNC(=S)NCCCc1ccccc1 | 6
O=C(CC(=O)N/N=C/c1ccccc1O)NCc1cccnc1 | 11
FC(F)(F)c1cccc(Cc2noc(CN3CCC(c4ccncc4)CC3)n2)c1 | 7
CCc1nc(NCCO)c(C#N)c2c1CCCC2 | 22

# Going on with the list.
smiles | Biofilm kill mix
CCCCc1cc2c(s1)CCCC/C2=N/O | 20
COc1cccc(CNC(=O)C(C(=O)NCc2cccc(OC)c2)c2ncc(C(F)(F)F)cc2Cl)c1 | 6
NC(CO)C(O)c1ccc([N+](=O)[O-])cc1 (stereo not given) | 16
CCNC(=S)/N=C(/Nc1ccc(OC)cc1)Nc1nc(C)cc(C)n1 | 9
CC(C)(C)NC(=O)CSc1nc(-c2ccccc2)cc(=O)[nH]1 | 12
Cc1cccc(N2CCN(C(=O)N3CCCCC3)CC2)c1C | 16
CCN(CC)C(=O)C(C)N(C#N)c1nc(Cl)nc(N(C)C)n1 (stereo not given) | 1
CC(O)C(O)C(O)C(O)/C=N/NC(=O)c1ccccc1 (stereo not given) | 19
COc1ccc(NC(=S)NCCCN2CCCC2)cc1Cl | 18
O=C(NC1CCCCC1)N(C1=NCCCCC1)c1ccc(Br)cc1 | 25
CCOc1ccc(C(=O)NCC(=O)OCc2ccc(F)cc2Cl)cc1 | 7
COc1ccc(C2CC(C(F)(F)F)n3nc(C(=O)O)cc3N2)cc1 (stereo not given) | 21
C=CCOc1ccc(/C=N/N2C(=O)C(CC(=O)Nc3ccc(F)cc3F)SC2=NC)cc1 (stereo not given) | 18
CS(=O)(=O)N(Cc1ccc(Cl)cc1)c1ccc(C(=O)NCCSc2ccccn2)cc1 | 11
CC(C)(C)OC(=O)N1CCC[C@H]1C(=O)N/N=C/c1ccc2ncccc2c1 | 7
O=C(c1ccc(Cl)c(S(=O)(=O)N2CCCC2)c1)N1CCN(c2ccccc2F)CC1 | 9
Cc1ccsc1C(=O)OCC(=O)NC1CCS(=O)(=O)C1 (stereo not given) | 17
Cc1cccn2c(=O)c3cc(C(=O)NC4CCCCC4)c(=N)n(CCN4CCOCC4)c3nc12 | 6
O=C(CSc1nnc(-c2ccncc2)o1)c1ccc2c(c1)OCCO2 | 15
O=C(Nc1nnc(C2=COCCO2)o1)C1CCCCC1 | 13
CCCCNC(=S)Nc1ccc(C(F)(F)F)cc1 | 15
COc1ccc(-c2cc(=O)c3c(OC)c(OC)c(OC)c(OC)c3o2)cc1OC | 14
COC(=O)c1ccccc1NC(=S)N1CCN(c2ccc(OC)cc2)CC1 | 14
CSCc1ccc(C(=O)Nc2cccc(C)c2C)cc1 | 22
Cc1ccc(C(=O)CC(c2cccs2)S(=O)(=O)c2ccc(C)cc2)cc1 (stereo not given) | 20
O=C(NCCOC(=O)c1ccc([N+](=O)[O-])cc1)c1cccnc1 | 16
COc1ccc(/C(N)=N/OC(=O)Cc2ccccc2[N+](=O)[O-])cc1 | 8
Cc1ccc(/C(N)=N/OC(=O)c2ccco2)cc1 | 11
O=C(O)CSc1nnc(COc2ccc([N+](=O)[O-])cc2)n1-c1ccccc1 | 15
CCn1c(SCC(=O)NC(=O)NC(C)(C)C)nc2ccccc21 | -1
Cc1nn(Cc2ccc(F)cc2)c(Cl)c1/C=N/NC(=O)c1cccnc1 | -7
CCOc1ccccc1NC(=O)COC(=O)c1cc(C(=O)OC)cc([N+](=O)[O-])c1 | 20
Cc1ccc(OCCOC(=O)c2sc(=S)n(C)c2C)cc1 | 22
CC(C)C(=O)Nc1cccc(NC(=O)c2cccc(Br)c2)c1 | 12
Cc1cc(C)nc(N(C#N)Cc2cccc(Cl)c2)n1 | 20
COc1cc(/C=C2/NC(=O)NC2=O)cc(Br)c1OCc1ccccc1 | 0
CCCNc1nc(Cl)nc(NC(C)(C)C)n1 | 9
CCOP(=O)(OCC)C(Nc1ccccc1)c1ccco1 (stereo not given) | 15
Cc1ncccc1C(=O)N1CCCC(CNC(=O)C2(c3ccc(Cl)cc3)CC2)C1 (stereo not given) | 18
CCN(CC)C(=O)CSc1nnc(CSc2ncccn2)n1C | 16
O=C(N/N=C/c1cc([N+](=O)[O-])ccc1Cl)c1cnccn1 | 15
Cc1snc(SCC(=O)c2ccc([N+](=O)[O-])cc2)c1C#N | 21
COc1ccccc1NC(=O)c1sc2ncn(Cc3cccc4ccccc34)c(=O)c2c1C | 10
CC1CCCC(NC(=S)NC(=O)c2ccccc2Br)C1C (stereo not given) | -9
Cc1nc(NC(=O)c2cccc(-c3cc4ccccc4oc3=O)c2)ccc1Br | 18
